# A1 inh: inhibitors of the anti-apoptotic protein A1, read as caspase activation; MEF A1-2A-BIM cells, Caspase-Glo 3/7 luminescence, 3 h; percent of clofoctol response, vehicle zero; caspase activation, % (no concentration beside the values); AID 2462; 330,000 compounds, 0.066% hits;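 active = over half of replicate activation scores above 10%, or exactly half above 10 with the replicate mean above 10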;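 note: wells of about 30 µL received 50 nL stock; many hits fall short of the cut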
# rRNA inh HTS: inhibitors of bacterial rRNA selective over humanized ribosomes | E. coli WT GFP vs humanized-ribosome RFP mutants, fluorescence, 24 h; hits give low values; DMSO median 0, no signal -100 | GFP signal change (wild-type ribosome), % (concentration not given with the values) | 350,000 compounds, 1.6% hits | AID 720706;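 active = significant combined selectivity score with lowered wild-type GFP, culture density cut under 30%, mutant RFP and density less affected; inactive = any of these conditions unmet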; note: one replicate is shown; some compounds called inactive have numbers as strong as hits
# MLL AF4-AF9 inh: inhibitors of human MLL-AF4/AF9 interaction; P42568; AlphaScreen, biotin-AF4 peptide binding to FLAG-AF9; inhibition, % at 10 µM; 350,000 compounds, 0.47% hits; AID 651704;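 active = every replicate reaching a set inhibition limit, whatever the replicate mean, cut at about 25% in these data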;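 note: 0% = plate neutral control median and 100% = total signal loss; the record names both 10 and 1 µM as test concentration; the first replicate is given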
# Target sequence (P42568 whole entry, looked up): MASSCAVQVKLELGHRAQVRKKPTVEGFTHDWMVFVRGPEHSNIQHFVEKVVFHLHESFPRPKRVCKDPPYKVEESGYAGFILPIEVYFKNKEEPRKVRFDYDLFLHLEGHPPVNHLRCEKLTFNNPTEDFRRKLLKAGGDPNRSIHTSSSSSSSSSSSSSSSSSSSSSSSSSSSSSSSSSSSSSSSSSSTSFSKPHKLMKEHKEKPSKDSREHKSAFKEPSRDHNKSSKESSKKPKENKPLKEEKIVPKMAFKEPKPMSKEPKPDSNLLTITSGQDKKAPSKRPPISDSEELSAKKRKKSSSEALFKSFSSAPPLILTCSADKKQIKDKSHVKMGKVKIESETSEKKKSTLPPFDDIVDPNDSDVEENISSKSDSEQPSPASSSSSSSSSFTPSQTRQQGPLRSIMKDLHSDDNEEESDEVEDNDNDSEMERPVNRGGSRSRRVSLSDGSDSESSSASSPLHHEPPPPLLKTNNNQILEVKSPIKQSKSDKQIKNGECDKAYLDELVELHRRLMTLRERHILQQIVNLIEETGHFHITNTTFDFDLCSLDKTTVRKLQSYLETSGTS
# Ecoli growth: inhibitors of Escherichia coli growth. OD600 absorbance (no concentration beside the values). 330,000 compounds, 0.21% hits. OD600, 23 h; hits give low values;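 active = OD600 absorbance below the run mean of sample wells minus 3.6 SD, in any replicate, cut at about 0.56 in these data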;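 note: stock transfer was 300 nL into about 60 µL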
# T cruzi repl: T. cruzi replication inhibition; T. cruzi beta-gal in NIH3T3, luminescence, 90 h; inhibition, % (concentration not given with the values); 300,000 compounds, 1.4% hits;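 active = mean inhibition across valid replicates above about 55%, limit read from the data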;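 note: signal also drops with host cell toxicity which is not excluded here; 0% = plate median of DMSO wells and 100% = zero luminescence signal; higher percent means less beta-gal luminescence so fewer parasites; stock transfer was 50 nL into about 50 µL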
# Beta apoptosis: beta cell apoptosis inhibition; INS-1E cytokine-induced death, ATP luminescence, 48 h; percent of positive-control rescue, neutral wells zero; protection from apoptosis, % (test concentration not listed); 300,000 compounds, 0.8% hits; AID 435005;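 active = all replicates at 75% or more, or half of them and the mean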;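 note: 0% = cytokine-treated negative control wells and 100% = positive control rescue; higher means more ATP so stronger rescue from cytokine killing; wells of about 40 µL received 100 nL stock; the first replicate is given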
# FGF22 binding: shifts melting point of recombinant human FGF22. AID 651658. recombinant FGF22 thermal shift, SYPRO orange fluorescence; percent of sucrose octasulfate shift, DMSO zero. calls only at 9.99 µM. 340,000 compounds, 1.5% hits;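 active = melting point raised past a set limit in the mean and every replicate; three in four hits are not shown here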
# Target sequence (Q9HCT0 whole entry, looked up): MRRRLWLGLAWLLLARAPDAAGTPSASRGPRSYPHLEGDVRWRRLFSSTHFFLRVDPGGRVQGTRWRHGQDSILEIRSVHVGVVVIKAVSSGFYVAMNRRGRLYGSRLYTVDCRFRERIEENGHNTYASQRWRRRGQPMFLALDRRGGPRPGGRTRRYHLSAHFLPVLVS
# UCH37 DUB inh: inhibitors of human deubiquitinating enzyme UCH37. inhibition, % (concentration not given with the values). purified proteasome/UCH37, Ub-AMC cleavage fluorescence. 330,000 compounds, 0.33% hits. Q9Y5K5;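 active = mean of two replicates above 20%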;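 note: 0% = compound-free wells with enzyme and 100% = wells lacking proteasome; stock transfer was 100 nL into about 20 µL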
# Target sequence (Q9Y5K5 whole entry, looked up): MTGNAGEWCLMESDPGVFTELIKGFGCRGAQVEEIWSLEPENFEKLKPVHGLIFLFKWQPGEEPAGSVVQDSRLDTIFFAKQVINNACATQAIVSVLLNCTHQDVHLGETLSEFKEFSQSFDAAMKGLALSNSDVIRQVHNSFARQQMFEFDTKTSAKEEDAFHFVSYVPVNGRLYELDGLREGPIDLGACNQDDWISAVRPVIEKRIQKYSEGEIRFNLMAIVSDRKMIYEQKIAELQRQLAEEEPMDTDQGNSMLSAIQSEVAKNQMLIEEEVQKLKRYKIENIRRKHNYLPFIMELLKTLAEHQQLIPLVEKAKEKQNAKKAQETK
#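 Material: human UCH37 enzyme supplied as purified proteasome complex. Measure: % inhibition of Ub-AMC cleavage fluorescence. Medium: pH 7.4 Tris-HCl (50 mM) with ovalbumin, ATP-MgCl2, DTT. Times: 30 min preincubation with enzyme, 25 min cleavage at room temperature. Detection: AMC fluorescence intensity at 355/460 nm.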
# rRNA inh HTS OD600: also measured in rRNA inh HTS; calls as there; OD600 change, %; measured here: OD600 growth;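 optical density of the mix in the first replicate; 0 = DMSO median and -100 = no signal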
# rRNA inh HTS RFP: second read-out of rRNA inh HTS, no call of its own (marks repeat the call); RFP signal change, %; measured here: RFP humanized mutant strains;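 first replicate; 0 = DMSO median and -100 = no signal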
# * marks the source's active call; other numbers are inactive results; i = inactive; nt = not tested or not shown. This is a subset (hit frequency here may not be typical).
# A first look:
SMILES,A1 inh,rRNA inh HTS,rRNA inh HTS OD600,rRNA inh HTS RFP,MLL AF4-AF9 inh,Ecoli growth,T cruzi repl,Beta apoptosis,FGF22 binding,UCH37 DUB inh
CCCSC1=C(C#N)C(c2ccccc2C)C(C(=O)OC)C(=O)N1 (stereo not given),-0.4,-11,-3,-1.3,-22,0.7,3,0,i,-1.1
COC(=O)c1c(NC(=O)Cc2ccccc2)sc2c1C(C(=O)OC)CC2 (stereo not given),2.3,-28,-40,-0.6,-0.6,0.67,29,7,i,-1.0
COc1ccc(NC(=O)ON=C2c3ccccc3-c3ccccc32)cc1,-1.8,nt,nt,nt,nt,0.6,-17,-7,nt,1.7
CCOc1ccc(-n2c(SCC(=O)Nc3cc(OC)c([N+](=O)[O-])cc3C)nc3ccccc32)cc1,1.0,18,15,2.1,-0.9,0.71,29,2,i,5.6

# Results (from the top)
SMILES,A1 inh,rRNA inh HTS,rRNA inh HTS OD600,rRNA inh HTS RFP,MLL AF4-AF9 inh,Ecoli growth,T cruzi repl,Beta apoptosis,FGF22 binding,UCH37 DUB inh
CCCSC1=C(C#N)C(c2ccccc2C)C(C(=O)OC)C(=O)N1 (stereo not given),-0.4,-11,-3,-1.3,-22,0.7,3,0,i,-1.1
COC(=O)c1c(NC(=O)Cc2ccccc2)sc2c1C(C(=O)OC)CC2 (stereo not given),2.3,-28,-40,-0.6,-0.6,0.67,29,7,i,-1.0
COc1ccc(NC(=O)ON=C2c3ccccc3-c3ccccc32)cc1,-1.8,nt,nt,nt,nt,0.6,-17,-7,nt,1.7
CCOc1ccc(-n2c(SCC(=O)Nc3cc(OC)c([N+](=O)[O-])cc3C)nc3ccccc32)cc1,1.0,18,15,2.1,-0.9,0.71,29,2,i,5.6
O=C(Cc1ncn[nH]1)NCCc1ccccc1,-0.8,10,23,0.6,-1.6,0.76,-10,-8,i,1.3
NC(=O)c1cc(Br)cc2c3c([nH]c12)CCCC3,0.2,nt,nt,nt,nt,0.68,-14,-21,nt,10
CC(NCCc1ccc(S(N)(=O)=O)cc1)C(=O)NCc1ccccc1 (stereo not given),0.7,1,-4,-4.3,3.1,0.69,0,-1,i,1.3
COc1cccc(/C=C2/C(=O)NN(c3ccccc3)C2=O)c1,0.6,1,5,-1.7,-1.2,0.71,4,1,i,3.0
Oc1ccccc1N=Nc1ccccc1O,nt,-9,-14,-4.7,-1.0,0.55,59*,nt,i,7.0
Cc1nc(C)c(C(=O)Nc2nc3c(C)cccc3s2)o1,-1.7,nt,nt,nt,nt,0.67,-11,3,nt,-0.6
NS(=O)(=O)c1ccc(CCNC(=O)CSc2nc3ccccc3c3nc(CCN4CCCCC4)nn23)cc1,0.6,16,1,2.7,1.1,0.66,-7,-3,i,0.2
Cc1ccccc1CO/N=C/c1[nH]ncc1Br,0.3,-23,-23,-3.5,1.3,nt,5,1,i,nt
Cc1ccc(CSCC(=O)Nc2ccc3c(c2)OCO3)cc1,0.2,-30*,-14*,0.9*,nt,0.71,2,11,nt,4.0
Cc1ccc(S(=O)(=O)Nc2ccccn2)cc1[N+](=O)[O-],-0.8,9,7,1.5,0.2,0.65,7,-1,i,4.9
CCc1ccccc1OCC(=O)N1CCN(c2ncccn2)CC1,nt,-1,-3,-1.9,-2.7,0.7,nt,nt,i,-0.3
CC(=O)N1CCN(S(=O)(=O)c2cccc(C(=O)NNC(=O)COc3c(C)cccc3C)c2)CC1,1.4,2,1,2.0,-4.5,0.68,nt,-3,i,-0.3
Clc1ccc(C(c2nnnn2C2CCCC2)N2CCN(Cc3ccncc3)CC2)cc1 (stereo not given),-0.3,nt,nt,nt,nt,0.75,-4,-3,nt,4.0
CCN(C(=O)COC(=O)/C(=C/c1ccccc1)n1nnnc1C)C1CCCCC1,0.4,-2,-1,-1.7,-0.1,0.7,-39,-6,i,1.1
Cc1ccc(-c2csc(-c3c[nH]c4ccccc34)n2)cc1,-0.1,nt,nt,nt,nt,0.75,-8,-10,nt,1.4
COc1ccc(CN2c3cc(S(=O)(=O)N4CCOCC4)ccc3N3CCCC32)cc1 (stereo not given),0.9,nt,nt,nt,nt,0.76,-1,-9,nt,-7.0
O=C(CN(C(=O)c1csnn1)c1cccc(Cl)c1)NCCc1ccccc1,0.1,-5,8,-3.0,2.0,0.61,3,7,i,0.6
CCOC(=O)c1sc(Nc2nc3ccc(OC)cc3s2)cc1C,-0.8,nt,nt,nt,nt,0.72,25,-6,nt,-185
CCC(CC)c1nnc(NC(=O)c2nc3nc(C)cc(C)n3n2)s1,-0.6,nt,nt,nt,nt,0.73,-18,-3,nt,-1.3
COc1ccc(NC(=O)COc2cccnc2[N+](=O)[O-])cc1OC,-0.1,9,4,-0.1,-2.2,0.7,6,-2,i,-0.3
N=c1c2c(-c3ccccc3)c(-c3ccccc3)n(Cc3ccco3)c2ncn1CCO,-0.4,nt,nt,nt,nt,0.67,34,9,nt,5.4
COc1ccc(NCc2nnc(SCC(=O)c3ccc(OC)cc3)o2)cc1,-0.4,nt,nt,nt,nt,0.65,-11,2,nt,4.5
CN(C)c1cccc(C(=O)NCc2ccc(Cl)cc2)c1,-0.1,5,16,0.9,0.3,0.65,9,-1,i,-22
Cc1ncc([N+](=O)[O-])n1CC(=O)Nc1cccc(C(F)(F)F)c1,0.0,15,18,0.2,-2.1,0.68,-9,-3,i,5.6
O=S(=O)(c1ccc(Cl)cc1)n1cnc2ccccc21,0.1,-4,3,-3.4,5.3,0.71,-17,4,i,4.7
Cc1ccc(-c2cc(C(=O)Nc3c(C)n(C)n(-c4ccccc4)c3=O)[nH]n2)c(O)c1,-1.4,nt,nt,nt,nt,0.71,-11,-3,nt,3.1
Oc1c(CN2CCN(c3ccccc3)CC2)cc(Br)c2cccnc12,-1.1,-21,-23,-10,21,0.46*,52,98*,i,1.7
Cc1ccccc1OCC(=O)NCCCNC(=O)c1ccncc1,0.8,0,1,0.9,-2.7,0.67,1,-15,i,0.0
Cc1nnc(N2CCCC(C(=O)NCc3cccc(F)c3)C2)c2nn(-c3ccccc3)c(C)c12 (stereo not given),1.7,-2,-1,0.3,3.1,0.65,18,1,i,-80
CCCCn1cnc2c(SCCc3ccccc3)nc(N)nc21,nt,nt,nt,nt,-0.2,0.65,nt,nt,i,-9.0
Cc1ncc[nH]1,0.4,3,3,-0.1,nt,0.69,nt,-5,i,1.5
CCc1ccc(NC(=O)Cn2nc(C)n3cccc3c2=O)cc1,0.3,0,-8,-2.0,4.7,0.68,22,-1,i,1.2
CCC1CCC(C(=O)NC(C(=O)NCCc2ccc(S(N)(=O)=O)cc2)C(C)C)CC1 (stereo not given),0.8,4,10,2.8,0.1,0.67,-3,-1,i,-2.6
CCC(C)CNC(=O)c1cccc(OC2CCN(CC(C)(C)C)CC2)c1 (stereo not given),-0.2,13,9,5.0,-0.8,nt,9,3,i,nt
Cc1cccc(/N=C/c2sc3ccccc3c2O)n1,-11,12,8,24,-1.3,nt,8,-9,i,nt
COc1ccccc1-n1nnnc1SCC(=O)NC1CCCCC1,0.5,1,3,-2.1,7.3,nt,-2,5,i,nt
O=C(CN1CCN(S(=O)(=O)c2ccc(Br)cc2)CC1)c1ccc(O)c(O)c1,0.9,8,8,1.5,-4.9,0.72,13,-2,i,4.9
CC(OC(=O)c1ccc2c(=O)n3c(nc2c1)CCCCC3)C(=O)Nc1ccc(F)cc1Cl (stereo not given),-0.2,nt,nt,nt,nt,0.67,-19,-14,nt,-0.5
CCOC(=O)C1=C(N)OC2=C(C(=O)CCC2)C1c1ccco1 (stereo not given),0.0,nt,nt,nt,nt,0.72,-1,-6,nt,0.7
Cc1ccccc1N1C(S)=C(C#N)C(=O)NC12CCCCC2,0.0,nt,nt,nt,nt,0.65,-6,-8,nt,4.5
CC(C)(C)S(=O)(=O)/C(C#N)=N/Nc1ccc(S(C)(=O)=O)cc1,1.2,13,9,-1.2,0.8,nt,-2,-7,i,nt
COc1ccc(-c2nc3ccccc3nc2-c2ccccc2)cc1OC,-0.1,-26,-34,5.6,-0.4,0.58,11,-2,i,-25
O=C(c1ccc(C(F)(F)F)cc1)N1CCC(=O)N(C(CO)Cc2ccccc2)CC1 (stereo not given),-0.6,4,6,-1.5,-11,0.61,-4,7,i,1.5
CC(C)N1C(=O)CCC1C(=O)N1CCN(c2ccccn2)CC1 (stereo not given),0.2,7,7,-2.3,-0.1,0.71,-13,-5,i,2.5
COc1ccc(-c2csc(NC(=O)c3ccccc3Br)c2C(=O)O)cc1,-4.5,-34,-34,-9.1,-17,0.65,7,-3,i,0.3
COc1ccccc1NC(=O)Cc1noc(CSc2nnc(C)n2C)n1,1.8,12,14,2.6,-1.5,0.72,-3,-1,i,2.5
Nc1nonc1-n1nnc(C(=O)N/N=C/c2ccoc2)c1CSc1ccc(Cl)cc1,-0.4,-27,-38,0.0,-2.1,nt,-17,-3,i,nt
CCC12C(=O)C(CC)(C(c3ccccc3)=C1c1ccccc1)[C@@H]1C(=O)N(c3ccc(C)cc3)C(=O)C12 (stereo not given in full),1.4,11,12,-2.6,2.5,0.72,57*,13,i,5.9
Cc1cc(N(CCO)CCO)ccc1N=Nc1cc(F)ccc1F,1.0,-52,-54,-20,35*,0.71,-8,-1,i,6.4
COc1ccc(NS(=O)(=O)c2cc(N)ccc2N2CCCCC2)cc1,1.9,-6,-32,-3.1,3.6,0.69,nt,-3,i,1.2
CC(=O)Nc1cccc(C(=O)OCC(=O)N2CCC(c3ccccc3)=N2)c1,-0.3,-3,-11,-0.7,-5.8,0.68,-2,1,i,1.7
COC(=O)CN1C(=O)C2(OCCCO2)c2ccccc21,0.9,nt,nt,nt,nt,0.68,-5,0,nt,1.4
O=C(OCC(=O)N1CCc2ccccc21)c1ccc[nH]c1=O,0.8,13,7,2.5,1.3,0.69,-1,-1,i,3.0
CCOC(=O)[C@H](CCc1ccccc1)N[C@@H](C)C(=O)N1[C@H](C(=O)O)C[C@@H]2CCC[C@@H]21,-0.4,nt,nt,nt,-2.4,nt,-3,3,i,0.1
COc1ccccc1C(=O)COC(=O)c1cc([N+](=O)[O-])ccc1N1CCOCC1,-1.0,-1,0,11,9.0,0.71,6,nt,i,5.0
Cc1nn(C)cc1S(=O)(=O)N1CCN(c2ccc(F)cc2)CC1,0.4,2,1,-1.7,-0.7,0.69,2,1,i,-0.4
CC(Cc1c[nH]c2ccccc12)NC(=O)OCCCl (stereo not given),-0.3,10,-12,-2.5,0.7,0.68,3,-3,i,5.4

# Given with values under each structure: 2 of the compounds above
# Second line of a record – A1 inh | rRNA inh HTS | rRNA inh HTS OD600 | rRNA inh HTS RFP | MLL AF4-AF9 inh | Ecoli growth | T cruzi repl | Beta apoptosis | FGF22 binding | UCH37 DUB inh
CCC12C(=O)C(CC)(C(c3ccccc3)=C1c1ccccc1)[C@@H]1C(=O)N(c3ccc(C)cc3)C(=O)C12 (stereo not given in full)
    1.4 | 11 | 12 | -2.6 | 2.5 | 0.72 | 57* | 13 | i | 5.9
Cc1cc(N(CCO)CCO)ccc1N=Nc1cc(F)ccc1F
    1.0 | -52 | -54 | -20 | 35* | 0.71 | -8 | -1 | i | 6.4
